Screening results: PubChem, Vanderbilt University
GIRK2 act = activators of human GIRK2 potassium channels. P48051. HEK293-GIRK2 thallium flux, Thallos fluorescence. calls only for hits at 25 µM. 0.05% of 63,000 active. AID 1259325;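 active = among the strongest 0.2% of first-round signals and kept after retests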;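 note: first round at about 10 µM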
Target sequence (P48051 whole entry, looked up): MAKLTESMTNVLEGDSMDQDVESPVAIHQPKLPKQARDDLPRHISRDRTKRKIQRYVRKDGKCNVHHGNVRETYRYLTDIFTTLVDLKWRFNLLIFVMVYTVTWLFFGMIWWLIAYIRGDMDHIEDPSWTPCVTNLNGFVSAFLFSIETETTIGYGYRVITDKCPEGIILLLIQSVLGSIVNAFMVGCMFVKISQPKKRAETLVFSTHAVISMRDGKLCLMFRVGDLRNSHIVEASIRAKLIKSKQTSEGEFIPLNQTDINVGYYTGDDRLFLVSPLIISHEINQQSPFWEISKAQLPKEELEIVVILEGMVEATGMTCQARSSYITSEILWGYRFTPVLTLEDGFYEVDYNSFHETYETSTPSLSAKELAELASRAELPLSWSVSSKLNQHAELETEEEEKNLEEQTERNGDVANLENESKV
Calls only; i = inactive. This is a subset. The share of hits here may be higher or lower than overall.

GIRK2 act | SMILES
i | Cc1ncn(CC(=O)Nc2ccc(Br)cc2F)c(=O)c1C
i | Cn1cccc1C(CNC(=O)c1ccc2c(c1)OCO2)N1CCCCCC1 (configuration not stated)
i | Cc1cc(-c2nnc(NC(=O)CCc3c(C)noc3C)o2)c(C)o1
i | CCCCOc1ccccc1-c1cc2c(=O)n(Cc3nc(-c4ccccc4OC)no3)ccn2n1
i | CCOCCCNC(=O)c1cc2cc(Cl)cc(Cl)c2oc1=O
i | COc1ccc(NC(=O)Cn2cc(S(=O)(=O)c3ccc(C)cc3)c(=O)c3cc(Cl)ccc32)cc1
i | COc1ccc(-c2cc3ccc(OC(=O)N4CCOCC4)cc3oc2=O)c(OC)c1
i | Cc1cc(=O)n2c(-c3cccc(NS(=O)(=O)c4ccc(F)cc4)c3)csc2n1
i | COc1ccc(NC(=O)c2ccc(Cn3ccnc3)cc2)cc1N1CCCC1=O
i | CCOc1ccc(-c2ccc(=O)n(CCNS(=O)(=O)c3ccc(F)c(Cl)c3)n2)cc1
i | CNC(=O)c1nnn(-c2ccc(C)cc2)n1
i | O=C(Cn1nc2c3cc(F)ccc3ncn2c1=O)Nc1ccc(F)c(Cl)c1
i | COc1cccc(C(=O)Nc2nnc(-c3cc(C)ccc3C)o2)c1OC
i | COc1ccc(N2CCCn3c2nc2c3c(=O)n(CC(=O)O)c(=O)n2C)cc1
i | O=C(NCCc1ccccc1)C(=O)NCC1CCCO1 (configuration not stated)
i | O=C(Nc1nccs1)c1cccc(-n2ccc3ccccc32)c1
i | CCCCN1C(SCC(=O)Nc2cc(F)ccc2F)=NS(=O)(=O)c2ccccc21
i | CC(=O)NC1=NN(C(C)=O)C2(S1)C(=O)N(CCOc1cccc(C)c1)c1ccccc12 (configuration not stated)
i | O=C(NCC1CCCO1)c1nnn(-c2ccc(Br)cc2)n1 (configuration not stated)
i | COc1ccc2c(c1)CCN(c1nc3ccc(S(C)(=O)=O)cc3s1)C2
i | COc1ccc(/C=C2\Oc3cc(OCC(C)=O)ccc3C2=O)c(OC)c1
i | COc1ccc(CCNC(=O)c2ccc(Oc3nccnc3N3CCOCC3)cc2)cc1OC
i | CCN1CCCc2cc(CCNC(=O)c3cc(OC)c(OC)c(OC)c3)ccc21
i | Cc1ccc(-n2cc(C(=O)N3CCC(NC(=O)c4ccccc4C)CC3)nn2)cc1
i | COc1cccc(C(=O)NCCOc2cccc3cccnc23)c1OC
i | Cc1ccc(C(=O)N2CCN(c3ncnc4c3nnn4-c3ccc(C)cc3)CC2)cc1
i | COc1ccccc1/C=C1\Oc2c(ccc3c2CN(Cc2cc(OC)c(OC)c(OC)c2)CO3)C1=O
i | O=C(Cn1c(-c2cccnc2)nc2ccccc21)Nc1ccc2c(c1)OCO2
i | COc1ccc(S(=O)(=O)N2CCCOC2CNC(=O)C(=O)NCC(C)C)cc1C (configuration not stated)
i | O=C(CSC1=NNC2C3CC(c4ccccc4)NN3C=CN12)Nc1ccc2c(c1)OCCO2 (configuration not stated)
i | COc1cc(C2OC(c3ccc(O)c(OC)c3)C(C)C2C)ccc1O (configuration not stated)
i | O=C(CSc1ccc2ccccc2n1)NCc1ccco1
i | Cc1ccccc1N1CC(c2nc3ccccc3n2Cc2ccccc2)CC1=O (configuration not stated)
i | COc1ccc(-n2nnc(C(=O)NC3CCN(Cc4ccccc4)CC3)n2)cc1
i | O=C(Nc1nc(-c2cc3ccccc3o2)cs1)c1ccc2c(c1)OCCO2
i | O=C(NCCn1nc(C2CC2)n(-c2ccccc2)c1=O)c1cc(=O)c2ccccc2o1
i | COc1ccccc1-c1c(C)oc2cc(OS(C)(=O)=O)ccc2c1=O
i | CCOC(=O)N1CCc2c(sc(NC(=O)C(C)(C)C)c2-c2nc3ccccc3s2)C1
i | Cc1cc(C(F)(F)F)nc(CCNC(=O)c2cc(C3CC3)on2)n1
i | CCOC(=O)c1ccc(Nc2nn3c(=O)c4ccc(Cl)cc4nc3s2)cc1

Fetched by structure from the entries so far (3):
GIRK2 act | SMILES
i | O=C(CSc1ccc2ccccc2n1)NCc1ccco1
i | O=C(NCCn1nc(C2CC2)n(-c2ccccc2)c1=O)c1cc(=O)c2ccccc2o1
i | COc1cccc(C(=O)NCCOc2cccc3cccnc23)c1OC

Following part.
GIRK2 act | SMILES
i | Cc1ccc(CNC(=O)c2cn(-c3cc(N4CCCCC4)ncn3)cn2)cc1
i | COC(=O)c1ccc(C(=O)NCC2CCN(Cc3ccco3)CC2)cc1
i | CN(Cc1cc(=O)[nH]c2ccccc12)C(=O)c1ccc(COc2ccc(Cl)cc2)o1
i | CCN(CC)C(=O)Oc1ccc2c(=O)c(Oc3ccc(OC)cc3)coc2c1
i | CC(C)n1c(/C=C/[C@@H](O)C[C@@H](O)CC(=O)O)c(-c2ccc(F)cc2)c2ccccc21
i | Cc1ccccc1NC(=O)Cn1c(C)ncc(-c2nc(-c3ccccc3)cs2)c1=O
i | CCOC(=O)C1CCN(c2nc3ccccc3nc2S(=O)(=O)Cc2ccc(Cl)cc2)CC1
i | Cc1cc(C(O)CCNS(=O)(=O)c2ccc(C(F)(F)F)cc2)c(C)o1 (configuration not stated)
i | O=C(Nc1nccs1)c1cccc(S(=O)(=O)Nc2ccccc2)c1
i | COc1ccccc1Nc1ncc(-c2ccccc2)o1
i | COc1ncc(NC(=O)Nc2ccccc2OC)cn1
i | CCOc1ccccc1-n1c(C)c(C)n2c3c(=O)n(CC)c(=O)n(C)c3nc12
i | Cc1ccc(-n2c(C)c(C)n3c4c(=O)n(CCN5CCOCC5)c(=O)n(C)c4nc23)c(C)c1
i | O=C(NCC1CCN(c2cnccn2)CC1)c1ccc(Cl)s1
i | Cc1nc(-c2cccs2)sc1C(=O)N1CCN(c2ccc(-n3ccnc3)nn2)CC1
i | O=S(=O)(NCC1(O)CCOc2ccccc21)C1CC1 (configuration not stated)
i | COc1ccc(N2CCCn3c2nc2c3c(=O)n(Cc3ccccc3)c(=O)n2C)c(OC)c1
i | Cc1noc(-c2ccc(NC(=O)c3ccccc3C(F)(F)F)cc2)n1
i | COc1ccc(OC)c(NC2C=CS(=O)(=O)C2)c1 (configuration not stated)
i | COc1ccc(S(=O)(=O)Oc2ccc3c(c2)O/C(=C\c2cccnc2)C3=O)cc1

By substructure, the compounds so far containing a COOH group (two)
GIRK2 act | SMILES
i | COc1ccc(N2CCCn3c2nc2c3c(=O)n(CC(=O)O)c(=O)n2C)cc1
i | CC(C)n1c(/C=C/[C@@H](O)C[C@@H](O)CC(=O)O)c(-c2ccc(F)cc2)c2ccccc21

Returning to the listing; the 2 compounds before the break are reprinted first.
GIRK2 act | SMILES
i | COc1ccc(OC)c(NC2C=CS(=O)(=O)C2)c1 (configuration not stated)
i | COc1ccc(S(=O)(=O)Oc2ccc3c(c2)O/C(=C\c2cccnc2)C3=O)cc1
i | COc1ccc(CCNC(=O)C(=O)Nc2cc(F)ccc2F)cc1
i | Cn1nc(CNC(=O)Cc2cccs2)cc1-c1ccccn1
i | COc1ccc(-c2cc3c(=O)n(CC(=O)Nc4ccc(F)cc4)ccn3n2)cc1
i | CN(C)c1ncc(NS(=O)(=O)c2ccc(OC(F)(F)F)cc2)cn1
i | C=CCn1c(SCC(=O)N2CCOCC2)nc2scc(-c3ccc(C)c(C)c3)c2c1=O
i | COc1cn2c(cc1=O)C(=O)N(CCNC(=O)C1(c3ccc(Cl)cc3)CCCC1)CC2
i | COCCn1c(-c2nc(C(=O)NCc3cccnc3)cs2)cc2ccccc21
i | Cc1nc(-c2cccs2)sc1CNC(=O)Cn1cncn1
i | COCCNC(=O)CCc1csc(NC(=O)c2cccs2)n1
i | O=C(CCn1ccc(=O)[nH]c1=O)Nc1cccc(-c2ccn[nH]2)c1
i | O=C(c1cccc2ccccc12)N1CCN(Cc2nnnn2-c2cccc(F)c2)CC1
i | O=c1c2cc3c(cc2nc(SCc2nc(-c4ccc(Cl)cc4)no2)n1Cc1ccco1)OCO3
i | Cc1ccc(N2N=NC3C(=O)N(c4cccc(Cl)c4)C(=O)C32)cc1 (configuration not stated)
i | Cc1ccc(-n2nc(C)c(S(=O)(=O)c3ccccc3)c2OC(=O)C(C)C)c(C)c1
i | O=C(Cc1csc(Nc2ccccn2)n1)Nc1ccc(F)c(C(F)(F)F)c1
i | Cc1cccc(NC(=O)NCc2sc3nc(-c4ccc(F)cc4)cn3c2C)c1C
i | COc1cc(/C=C/[N+](=O)[O-])c2c(c1Br)CCCO2
i | CC(C)(C)c1ccc(S(=O)(=O)N2CC(c3nc(-c4cccnc4)no3)C2)cc1
i | O=C(CCSc1ccccc1)Nc1cccc(-c2ccn[nH]2)c1
i | CCSc1ccc(C(=O)Nc2nnc(-c3cccs3)o2)cc1

In another format: entries from further up.
| compound | GIRK2 act |
| --- | --- |
| O=C(CCn1ccc(=O)[nH]c1=O)Nc1cccc(-c2ccn[nH]2)c1 | i |
| O=C(c1cccc2ccccc12)N1CCN(Cc2nnnn2-c2cccc(F)c2)CC1 | i |
| O=c1c2cc3c(cc2nc(SCc2nc(-c4ccc(Cl)cc4)no2)n1Cc1ccco1)OCO3 | i |
| Cc1ccc(N2N=NC3C(=O)N(c4cccc(Cl)c4)C(=O)C32)cc1 (configuration not stated) | i |
| Cc1ccc(-n2nc(C)c(S(=O)(=O)c3ccccc3)c2OC(=O)C(C)C)c(C)c1 | i |

(listing goes on)
GIRK2 act | SMILES
i | COc1ccc(C)cc1NC(=O)c1nnn(-c2ccc(C)c(C)c2)c1-c1cccnc1
i | O=C(NC1CCCC1)N1CCN(c2nc3ccc(F)cc3s2)CC1
i | CC(=O)c1ccc(NC(=O)c2ccccc2NS(=O)(=O)c2ccc(C)cc2)cc1
i | NS(=O)(=O)c1ccc(CCNC(=O)CCCCCn2c(=S)[nH]c3ccccc3c2=O)cc1
i | O=C(CN1CCN(CC(O)c2cccs2)CC1)NCc1ccccc1 (configuration not stated)
i | O=C(CCc1csc2nc(-c3ccc(Cl)cc3)cn12)N1CCc2ccccc2C1
i | Cc1ccc2[nH]c3c(=O)n(CCC(=O)NCCC4=CCCCC4)cnc3c2c1
i | COc1ccccc1CNC(=O)Cn1c(C)cc(C)c(-c2nc(-c3cccc(Cl)c3)no2)c1=O
i | Cc1ccc(-c2noc(CS(=O)(=O)c3ccccc3)n2)cc1
i | COC(=O)c1ccc(C(=O)NCc2nn(C3CCCC3)c(=O)c3ccccc23)cc1
i | COc1ccc(C)cc1-n1c(C)cn2c3c(=O)n(CCN4CCOCC4)c(=O)n(C)c3nc12
i | O=S(=O)(Cc1cccc(Cl)c1)NCC(c1ccco1)N1CCc2ccccc2C1 (configuration not stated)
i | Cc1cc(=O)[nH]c2nnc(Nc3ccccc3)n12
i | COC(=O)c1ccc(NC(=O)C(=O)NCCN2CCN(c3ccccc3OC)CC2)cc1
i | COc1ccc(OC)c(NC(=O)Cn2nc3c(Oc4ccc(C)cc4)nccn3c2=O)c1
i | CCCOc1nc2c(c(=O)n(C)c(=O)n2C)n1CC(O)COc1ccccc1C (configuration not stated)
i | Cc1ccccc1C(=O)N1CCN(c2oc(-c3ccc(Cl)cc3)nc2C#N)CC1
i | COc1ccc(Nc2nc(C)cc(N)n2)cc1Cl
i | CCN1CCc2c(sc(NC(=O)c3ccc(Cl)cc3)c2-c2nc3ccccc3s2)C1
i | CCOc1ccccc1NC(=O)Cn1c2ccc(C)cc2c2ncn(Cc3nc(CC)no3)c(=O)c21
i | CCCOc1cc(S(=O)(=O)N2CC(C)CC(C)C2)ccc1Cl (configuration not stated)
i | CCCCOc1ccc(C(=O)N(CCOC)Cc2ccoc2)cc1
i | COCc1c(-c2nnc(Cc3ccc(Cl)cc3)o2)nnn1-c1ccc(F)cc1
i | COc1ccc(/C=C/C(=O)Nc2ccc3c(=O)c4ccccc4oc3c2)cc1
i | COc1ccc(CC(C)(O)CNS(=O)(=O)c2ccc(F)cc2C)cc1 (configuration not stated)
i | CCCc1noc(C2CCCCN2CC(=O)Nc2ccc(F)c(Cl)c2)n1 (configuration not stated)
i | O=C(CCC(=O)c1ccccc1)Nc1ccc(-c2ccn[nH]2)cc1
i | COc1ccc(OCCS(=O)(=O)Nc2ccccc2-c2ccccc2)cc1
i | O=C(NCC1(CO)CC1)Nc1ccc(Cl)c(Cl)c1
i | Cc1nn(C(C)(C)C)c(OC(=O)c2ccc3ccccc3c2)c1S(=O)(=O)c1ccccc1
i | O=C(O)CCNS(=O)(=O)c1ccc(Oc2ccccc2)cc1
i | O=C(Cn1cnc2ccccc21)N1CCC(c2nnc(-c3ccc(F)cc3)o2)CC1
i | COc1ccc(-c2csc(CN3CCN(C(=O)c4ccccc4SC)CC3)n2)cc1
i | COc1ccc(NC(=O)CCCCn2c(=O)[nH]c3ccccc3c2=O)cc1
i | CCOc1ccc2ccccc2c1C(=O)N1CCC(COCc2ccc(F)cc2)CC1
i | CCc1ccc(N2C(=O)C3N=NN(Cc4nc(-c5ccc(Br)cc5)no4)C3C2=O)cc1 (configuration not stated)
i | CC(C)c1nnc(C2CCN(Cc3cccnc3)CC2)o1
i | O=C(c1csc2nc(-c3ccccc3)cn12)N1CCN(c2ccccc2)CC1
i | CCOc1ccc(-c2ccc(=O)n(C(C)C(=O)Nc3nc(C)c(C)s3)n2)cc1 (configuration not stated)
i | O=S(=O)(Nc1ccc(Nc2cc(-n3cccn3)ncn2)cc1)c1ccc(OC(F)(F)F)cc1
i | O=c1c2cc(-c3cccc4ccccc34)nn2ccn1Cc1nc(-c2ccccc2Br)no1
i | COc1cccc(NC(=O)N2CCN(CCNC(=O)c3ccsc3)CC2)c1
i | Brc1ccc(-c2ccc(-c3nnc(-c4ccncc4)o3)o2)cc1
i | COc1ccccc1N1CCN(CC(N)=O)CC1
i | Cc1nc(-c2ccco2)sc1CNC(=O)COc1cccc(C(F)(F)F)c1
i | Cc1cn2c3c(=O)n(CCc4ccccc4)c(=O)n(C)c3nc2n1CCCO
i | O=C(CCc1ccccc1)N1N=C(c2ccccc2)CC1c1ccco1 (configuration not stated)
i | CCC1=C(C)CN(C(=O)NCCc2ccc(S(=O)(=O)NC(=O)NC3CCC(C)CC3)cc2)C1=O (configuration not stated)
